Screening data as filed in PubChem BioAssay.
DUX4 txn inh: inhibitors of DUX4-driven ZSCAN4 reporter expression, primary screen, 293T cells, Gaussia and Italica luciferase; 293T-iDUX4 ZSCAN4-Gaussia luciferase reporter, 24 h; stronger effect = lower value; activity change, negative = inhibition, % (test concentration not listed); 37,000 tested, 0.8% active;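 active = -10% or lower and over 25 points stronger than a control reporter; inconclusive = -10% or lower with a smaller gap; inactive = above -10%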;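 also: 0% = median of neutral control wells and -100% = median of positive control wells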
DUX4 txn inh difference: further read-out of DUX4 txn inh, marked with its call; Gaussia minus Italica difference, %; measured here: selective DUX4 reporter inhibition;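 worked out from the two reporters; negative = selective loss of the DUX4 reporter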
DUX4 txn inh control: recorded beside DUX4 txn inh, whose call it bears; activity change, negative = inhibition, %; measured here: Italica tet-on control reporter;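 0 = neutral control and -100 = positive control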
An asterisk follows results filed as active; u = inconclusive; x = no result given. The list is partial (hit frequency here may not be typical).

smiles,DUX4 txn inh,DUX4 txn inh difference,DUX4 txn inh control
O=C(NC1CCCC1)N1CCCCN2[C@H](CO)[C@@H](c3ccc(-c4cncnc4)cc3)[C@@H]2C1,19,4,15
CCCNC(=O)Nc1ccc2c(c1)C(=O)N(C)[C@H]1CC[C@H](CC(=O)NCCCN(C)C)O[C@H]1CO2,-5,-7,1.8
O=C1CN(Cc2ccccc2)C[C@H]2[C@H](c3ccc(Br)cc3)[C@@H](CO)N12,4,3,0.4
C[C@@H]1CN([C@H](C)CO)C(=O)c2cc(NS(=O)(=O)c3ccccc3)ccc2O[C@@H]1CN(C)Cc1ccc(Cl)c(Cl)c1,-3,-4,0.7
C[C@H]1CN([C@@H](C)CO)C(=O)c2cc(-c3cccc(C#N)c3)cnc2O[C@@H]1CN(C)Cc1ccc(F)cc1,4,4,0.9
CCCNC(=O)[C@H]1[C@H](CO)[C@H]2Cn3c(cccc3=O)[C@@H]1N2Cc1ccccc1,1,2,-0.5
O=C(NCC[C@@H]1CC[C@@H](NS(=O)(=O)Cc2ccccc2)[C@@H](CO)O1)C1CCCCC1,3,2,0.4
COc1cccc(C(=O)N2C[C@@H]3[C@H](c4ccccc42)[C@H](CO)N3Cc2cccnc2)c1,2,3,-0.3
CC(=O)N1[C@@H](CO)[C@H](c2ccccc2)[C@@H]1CN(C(=O)c1ccccc1)C(C)C,1,2,-1.2
O=C(C[C@@H]1CC[C@@H]2[C@H](COC[C@H](O)CN2C(=O)Nc2ccc(Cl)cc2)O1)NCc1ccncn1,12,4,7.8
CC(=O)N1CC2(C1)[C@@H](c1ccc(-c3cccc(F)c3)cc1)[C@@H](CO)N2CC1CC1,-8,-7,-1.8
C[C@H](CO)N1C[C@H](C)[C@@H](CN(C)Cc2cccc(C(=O)O)c2)OCc2cn(nn2)CCCC1=O,0,1,-0.2

smiles,DUX4 txn inh,DUX4 txn inh difference,DUX4 txn inh control
CCC(=O)N1[C@H](CO)[C@@H](c2ccccc2)C12CN(CC1CCOCC1)C2,2,3,-0.8
COc1ccc(NC(=O)N(C)C[C@@H]2OCc3ccccc3-c3c(n(C)c4ccccc34)C(=O)N([C@H](C)CO)C[C@H]2C)c(OC)c1,u,x,x
CC(C)NC(=O)N1[C@H](C#N)[C@H](c2ccc(-c3ccc(F)cc3)cc2)[C@@H]1CO,2,3,-0.7
CCCNC(=O)N1[C@H](C#N)[C@@H](c2ccccc2-c2ccccc2)[C@@H]1CO,11,11,-0.4
CCC(=O)N1CC2(C1)[C@H](c1ccc(-c3ccc(C#N)cc3)cc1)[C@H](CO)N2C(C)=O,3,8,-5.2
C[C@@H]1CN([C@H](C)CO)C(=O)c2cc(NC(=O)CCN3CCOCC3)ccc2O[C@@H]1CN(C)CC1CCCCC1,-1,2,-2.4
COc1ccc(C#Cc2ccc3c(c2)[C@H]2[C@H](CCN2C(=O)CN2CCOCC2)[C@H](CO)N3C)cc1,u,x,x
O=C(c1ccc2c(c1)OCO2)N1CC2(C1)[C@H](c1ccccc1)[C@H](CO)N2C(=O)C1CCCC1,u,x,x
CC=Cc1ccc2n(c1=O)C[C@H]1[C@H](CO)[C@@H](C(=O)NCCc3ccncc3)N(CCC(F)(F)F)[C@@H]21 (mixture of isomers),11,4,7.2
O=S(=O)(c1ccccc1F)N1CCCCN2[C@H](C1)[C@@H](c1ccc(-c3cncnc3)cc1)[C@@H]2CO,30,11,19
O=C(NCc1ccncc1)[C@H]1N[C@H]2c3ccc(/C=C/c4ccccc4)c(=O)n3C[C@H]2[C@@H]1CO,-2,-2,-0.7
C[C@H]1CN([C@@H](C)CO)C(=O)CCCn2cc(nn2)CO[C@H]1CN(C)S(=O)(=O)c1cn(C)cn1,1,-2,2.9

smiles,DUX4 txn inh,DUX4 txn inh difference,DUX4 txn inh control
CCN1[C@H](C(=O)NCc2ccncn2)[C@@H](CO)[C@@H]2Cn3c(ccc(-c4ccc(F)cc4)c3=O)[C@@H]21,-5,-6,0.6
C[C@@H]1CCCCO[C@H](CN(C)C(=O)CCC(F)(F)F)[C@@H](C)CN([C@H](C)CO)C(=O)c2cc(NC(=O)CCCCCC(=O)Nc3ccccc3N)ccc2O1,-1,3,-4.3
CCN(C[C@@H]1[C@@H](c2ccccc2)[C@H](CO)N1S(C)(=O)=O)C(=O)C1CCCC1,-2,-2,0.3
O=C(NC1CCCC1)[C@@H]1[C@@H](CO)[C@@H]2Cn3c(cccc3=O)[C@H]1N2Cc1cc(F)ccc1F,5,5,-0.1
COc1cccc(NC(=O)N(C)C[C@@H]2Oc3cc(C#Cc4ccncc4)ccc3S(=O)(=O)N([C@H](C)CO)C[C@@H]2C)c1,0,-6,5.9
O=C(c1ccccc1)N1CC(=O)N2[C@H](CO)[C@@H](c3ccc(C4=CCCC4)cc3)[C@@H]2C1,16,6,10
O=C(NCC[C@H]1CC[C@H](NC(=O)c2ccccc2F)[C@H](CO)O1)c1cnccn1,1,-3,4.2
O=C(Nc1ccccc1F)N1C[C@@H]2[C@H](c3ccccc31)[C@@H](CO)N2C(=O)c1ccccc1F,1,5,-3.3
C/C=C/c1ccc([C@H]2[C@H]3CN(C(=O)c4ccncc4)CC(=O)N3[C@H]2CO)cc1,13,2,11
COc1ccccc1-c1ccc([C@H]2[C@H]3CN(C(=O)CN4CCOCC4)CCCCN3[C@H]2CO)cc1,15,14,1.9
COc1ccc(NC(=O)N(C)C[C@@H]2OCc3ccccc3-c3ccccc3C(=O)N([C@H](C)CO)C[C@@H]2C)cc1,17,16,0.9
C/C=C/c1ccccc1[C@H]1[C@@H](CO)N(C(=O)Nc2ccccc2)[C@H]1C#N,1,7,-5.8

Some of these compounds in order of their number in DUX4 txn inh, high to low:
smiles,DUX4 txn inh,DUX4 txn inh difference,DUX4 txn inh control
C/C=C/c1ccccc1[C@H]1[C@@H](CO)N(C(=O)Nc2ccccc2)[C@H]1C#N,1,7,-5.8
COc1cccc(NC(=O)N(C)C[C@@H]2Oc3cc(C#Cc4ccncc4)ccc3S(=O)(=O)N([C@H](C)CO)C[C@@H]2C)c1,0,-6,5.9
CCN1[C@H](C(=O)NCc2ccncn2)[C@@H](CO)[C@@H]2Cn3c(ccc(-c4ccc(F)cc4)c3=O)[C@@H]21,-5,-6,0.6

Entries above with a Cl atom:
smiles,DUX4 txn inh,DUX4 txn inh difference,DUX4 txn inh control
C[C@@H]1CN([C@H](C)CO)C(=O)c2cc(NS(=O)(=O)c3ccccc3)ccc2O[C@@H]1CN(C)Cc1ccc(Cl)c(Cl)c1,-3,-4,0.7
O=C(C[C@@H]1CC[C@@H]2[C@H](COC[C@H](O)CN2C(=O)Nc2ccc(Cl)cc2)O1)NCc1ccncn1,12,4,7.8

Additional entries follow.
smiles,DUX4 txn inh,DUX4 txn inh difference,DUX4 txn inh control
Cc1cccc(S(=O)(=O)N2CC[C@@H]3[C@H](CO)Nc4ccc(C#Cc5ccc(F)cc5)cc4[C@@H]32)c1,-8,-4,-3.7
O=C(C[C@H]1CC[C@H]2[C@@H](COC[C@@H](O)CN2C(=O)c2ccc(F)cc2)O1)N1CCCCC1,7,5,2.6
O=C(Nc1ccccc1Cl)N1C[C@@H]2[C@H](c3ccccc31)[C@@H](CO)N2Cc1ccncc1,-1,-1,-0.1
N#C[C@H]1[C@@H](c2ccccc2C2=CCCCC2)[C@@H](CO)N1C(=O)Nc1ccccc1F,u,x,x
C[C@@H]1CN([C@@H](C)CO)C(=O)c2cc(C3=CCCC3)cnc2O[C@@H]1CN(C)C(=O)Nc1ccc(C(F)(F)F)cc1,0,-5,4.2
O=C(NCC1CC1)[C@H]1[C@H](CO)[C@H]2Cn3c(ccc(-c4cccc(F)c4)c3=O)[C@H]2N1CC1CCCC1,u,x,x
CCC(=O)N1[C@@H](CO)[C@@H]2c3ccccc3N(C(=O)CC(F)(F)F)C[C@@H]21,1,3,-1.4
CN1CCN(C(=O)C[C@H]2CC[C@@H]3[C@H](COC[C@@H](O)CN3Cc3ccc4c(c3)OCO4)O2)CC1,6,7,-0.2
CCC(=O)N1[C@@H](CO)[C@@H](c2ccccc2)[C@@H]1CN(C)C(=O)c1ccccc1F,-3,0,-2.6
CCOC(=O)N(C)C[C@H]1OCc2ccccc2-c2c(n(C)c3ccccc23)C(=O)N([C@H](C)CO)C[C@@H]1C,1,6,-4.6
N#C[C@@H]1[C@@H](c2ccccc2)[C@H](CO)N1S(=O)(=O)c1cccc(F)c1,1,-2,2.6
O=C(Nc1cccc(F)c1)N1C[C@@H]2[C@H](c3ccccc31)[C@H](CO)N2C(=O)Cc1ccccc1,-1,-6,4.5

smiles,DUX4 txn inh,DUX4 txn inh difference,DUX4 txn inh control
Cc1noc(C)c1S(=O)(=O)N(C)C[C@H]1OCCCC[C@H](C)Oc2ccc(NC(=O)CCC(F)(F)F)cc2C(=O)N([C@H](C)CO)C[C@@H]1C,-5,9,-13
CNC(=O)C[C@H]1CC[C@H]2[C@@H](COC[C@@H](O)CN2S(=O)(=O)c2cccc(Cl)c2)O1,4,-1,5.2
O=C(NC1Cc2ccccc2C1)[C@H]1[C@H](CO)[C@H]2Cn3c(cccc3=O)[C@H]2N1C(=O)C1CC1,6,13,-7.7
O=C(C[C@@H]1C[C@H]2c3cc(NC(=O)Nc4ccc(C(F)(F)F)cc4)ccc3O[C@H]2[C@@H](CO)O1)NC1CCCCC1,1,7,-5.1
O=C(Nc1ccc(F)cc1)N1CCCCN2[C@H](C1)[C@H](c1ccc(-c3cccc(F)c3)cc1)[C@@H]2CO,9,31,-22
COC(=O)C[C@@H]1CC[C@H]2[C@@H](COc3ccc(NC(=O)Nc4cccc(C#N)c4)cc3C(=O)N2C)O1,2,-3,4.9
COc1ccc(-c2ccc(C3[C@@H]4CN(C(=O)c5cnccn5)C[C@H]3N4)cc2)cc1 (stereo not given in full),-32*,-31*,-1.4*
COc1ccc(S(=O)(=O)N(C)C[C@H]2Oc3c(NC(=O)c4nc5ccccc5s4)cccc3C(=O)N([C@H](C)CO)C[C@H]2C)cc1,3,0,2.8
CC=Cc1ccc2n(c1=O)C[C@@H]1[C@@H](CO)[C@H](C(=O)NC3CCC3)N(C(=O)C3CC3)[C@H]21 (mixture of isomers),-6,-15,9.3
O=C(NCc1ccncn1)[C@@H]1[C@@H](CO)[C@@H]2Cn3c(cccc3=O)[C@H]1N2CC1CC1,11,8,2.9
CC(C)COC(=O)N(C)C[C@@H]1OCc2ccccc2-c2c(n(C)c3ccccc23)C(=O)N([C@@H](C)CO)C[C@H]1C,-5,-1,-3.9
CC(=O)N1CCCCN2[C@H](C1)[C@@H](c1ccc(-c3cccc(C)c3)cc1)[C@@H]2CO,3,-3,6.2

smiles,DUX4 txn inh,DUX4 txn inh difference,DUX4 txn inh control
CCC(=O)N1[C@H](CO)[C@@H](c2ccccc2)C12CN(C(=O)c1cnccn1)C2,10,12,-1.3
CO[C@H]1CN(C)C(=O)c2cc(NS(C)(=O)=O)ccc2OC[C@@H](C)N(C(=O)NC(C)C)C[C@H]1C,0,-1,1.2
CO[C@@H](CN(C)Cc1ccc(-c2ccccn2)cc1)[C@@H](C)CN(C(=O)Nc1ccc(F)cc1)[C@@H](C)CO,-9,-8,-0.9
C[C@H](CO)N1C[C@H](C)[C@H](CN(C)S(=O)(=O)c2cn(C)cn2)OCCCC[C@H](C)Oc2ccc(NS(=O)(=O)c3cccs3)cc2C1=O,8,5,3.3
N#C[C@@H]1[C@@H](c2ccccc2-c2cccc(F)c2)[C@H](CO)N1C(=O)NC1CCCCC1,u,x,x
O=C(Nc1ccccc1)N1CCCCN2[C@@H](CO)[C@@H](c3ccc(-c4ccncc4)cc3)[C@@H]2C1,-5,-1,-4.1
CCC(=O)Nc1ccc2c(c1)OC[C@@H](C)N(Cc1ccccc1)C[C@@H](C)[C@@H](OC)CN(C)C2=O,-5,-6,0.6
Cc1ccc(S(=O)(=O)NCC[C@H]2CC[C@@H](NS(=O)(=O)c3ccccc3Cl)[C@H](CO)O2)cc1,-4,-6,1.9
CCc1cnc(N2[C@H](CO)[C@@H](c3ccc(C4=CCCCC4)cc3)[C@@H]2C#N)s1,-3,-4,1.4
COCC(=O)N1[C@@H](CO)[C@@H]2c3ccccc3N(C)C[C@@H]21,0,1,-0.2
CCC(=O)N1CC[C@@H]2[C@@H](CO)Nc3ccc(C#Cc4ccccc4)cc3[C@@H]21,8,-1,9.0
COc1ccc(S(=O)(=O)N2CCCCN3[C@H](C2)[C@H](c2ccc(C4=CCCC4)cc2)[C@@H]3CO)cc1,-9,-7,-2.0
CO[C@@H]1CN(C)C(=O)c2ccc(NS(=O)(=O)c3cn(C)cn3)cc2OC[C@@H](C)N(Cc2ccc(C(F)(F)F)cc2)C[C@H]1C,-4,-6,1.8
C[C@H](CO)N1C[C@H](C)[C@H](CN(C)C(=O)Cc2ccccc2)OCCCC[C@H](C)Oc2ccc(NC(=O)c3ccncc3)cc2C1=O,6,4,2.0

One compound at a time, as listed above.
`CCC(=O)N1[C@H](CO)[C@@H](c2ccccc2)C12CN(C(=O)c1cnccn1)C2` across the screens: DUX4 txn inh = 10; DUX4 txn inh difference = 12; DUX4 txn inh control = -1.3
`CCC(=O)N1CC[C@@H]2[C@@H](CO)Nc3ccc(C#Cc4ccccc4)cc3[C@@H]21` across the screens: DUX4 txn inh = 8; DUX4 txn inh difference = -1; DUX4 txn inh control = 9.0
`O=C(Nc1ccccc1)N1CCCCN2[C@@H](CO)[C@@H](c3ccc(-c4ccncc4)cc3)[C@@H]2C1` across the screens: DUX4 txn inh = -5; DUX4 txn inh difference = -1; DUX4 txn inh control = -4.1
